# Compound activity from PubChem.
# MLL AF4-AF9 inh = blocks AF4 peptide binding to human AF9; P42568; AlphaScreen, biotin-AF4 peptide binding to FLAG-AF9; inhibition, % at 10 µM; actives 0.47% (n = 350,000); AID 651704;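 active = every replicate reaching a set inhibition limit, whatever the replicate mean, cut at about 25% in these data; inconclusive = mean inhibition reaches that limit but some replicates miss it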;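 also: 0% = plate neutral control median and 100% = total signal loss; the record names both 10 and 1 µM as test concentration; the first replicate is given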
# Vif A3G = HIV-1 Vif–A3G interaction blockers – biochemical, TR-FRET, GST-Vif 1-94, biotin-A3G peptide, dose response retest, primary screen (AID 1117319); actives 0.57% (n = 260,000); TR-FRET GST-Vif / biotin-A3G peptide binding; higher % means a stronger effect; test concentration not given here; strong numbers were not always called active; inhibition, %, or IC50 in µM where a hit was titrated;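 active = above the screen mean plus three standard deviations and confirmed in dose response; inconclusive = results disagree or hit not tested in dose response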;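 also: Vif residues 1-94 fused to GST binding biotinylated APOBEC3G peptide 110-148; 0% = full assay without inhibitor and 100% = GST in place of GST-Vif; retest series ran down from 100 µM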
# HNF4A DNA FP = change in binding of human HNF4 alpha to DNA; P41235; HNF4a-FITC DNA binding, fluorescence polarization, 1 h; activity change, % at 10 µM; actives 0.3% (n = 360,000); in the data active = activity change above about 30%, passing the limit was not always enough;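 also: controls were the assay level and a saturating level of protein; the project sought stronger binding though the title names inhibitors; some compounds called inactive have numbers as strong as hits; positive values seem to mean higher polarization but the record does not say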
# Target sequence (P41235 whole entry, looked up): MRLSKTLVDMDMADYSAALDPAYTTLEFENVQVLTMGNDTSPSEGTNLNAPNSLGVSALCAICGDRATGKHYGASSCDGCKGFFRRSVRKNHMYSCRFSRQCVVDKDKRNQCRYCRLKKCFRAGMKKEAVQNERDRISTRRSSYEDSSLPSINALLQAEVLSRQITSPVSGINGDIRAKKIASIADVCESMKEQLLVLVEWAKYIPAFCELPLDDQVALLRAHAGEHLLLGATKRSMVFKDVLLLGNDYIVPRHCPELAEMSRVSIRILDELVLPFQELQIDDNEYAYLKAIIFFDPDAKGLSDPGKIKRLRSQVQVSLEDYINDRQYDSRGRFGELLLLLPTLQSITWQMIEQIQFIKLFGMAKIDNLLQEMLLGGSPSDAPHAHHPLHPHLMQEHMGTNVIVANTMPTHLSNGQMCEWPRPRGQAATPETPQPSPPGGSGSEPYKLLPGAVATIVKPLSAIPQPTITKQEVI
# FGF22 binding = binders of recombinant human FGF22 by thermal shift; actives 1.5% (n = 340,000); calls only at 9.99 µM; SYPRO orange fluorescence; percent of sucrose octasulfate shift, DMSO zero;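 active = melting point raised past a set limit in the mean and every replicate; inconclusive = no clear call; three in four hits are not shown here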
# Target sequence (Q9HCT0 whole entry, looked up): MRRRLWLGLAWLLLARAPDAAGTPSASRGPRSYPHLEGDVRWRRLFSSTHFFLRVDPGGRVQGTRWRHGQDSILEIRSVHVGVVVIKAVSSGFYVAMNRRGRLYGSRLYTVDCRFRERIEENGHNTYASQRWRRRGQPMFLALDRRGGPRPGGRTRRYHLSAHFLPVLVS
# RanGTP-Impb inh = inhibitors of RanGTP-importin-beta interaction, primary screen, biochemical, FRET, CFP-Ran, YFP-importin-beta, homogeneous. AID 2216. inhibition, % (no concentration beside the values). cell-free CFP-Ran/YFP-importin-beta FRET ratio. actives 1.1% (n = 300,000);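 active = most replicates above 15%; inconclusive = exactly half above 15%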;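 also: 0% = DMSO wells and 100% = Ran loaded with GDP instead of GTP; wells of about 40 µL received 100 nL stock; the first replicate is given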
# Ecoli growth = blocks Escherichia coli growth. OD600 absorbance (no concentration beside the values). OD600, 23 h; active compounds read low. actives 0.21% (n = 330,000). AID 1053175;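 active = OD600 absorbance below the run mean of sample wells minus 3.6 SD, in any replicate, cut at about 0.56 in these data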;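 also: stock transfer was 300 nL into about 60 µL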
# UCH37 DUB inh = inhibitors of human deubiquitinating enzyme UCH37. inhibition, % (concentration not given with the values). Q9Y5K5. actives 0.33% (n = 330,000). purified proteasome/UCH37, Ub-AMC cleavage fluorescence;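 active = mean of two replicates above 20%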;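 also: 0% = compound-free wells with enzyme and 100% = wells lacking proteasome; stock transfer was 100 nL into about 20 µL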
# Target sequence (Q9Y5K5 whole entry, looked up): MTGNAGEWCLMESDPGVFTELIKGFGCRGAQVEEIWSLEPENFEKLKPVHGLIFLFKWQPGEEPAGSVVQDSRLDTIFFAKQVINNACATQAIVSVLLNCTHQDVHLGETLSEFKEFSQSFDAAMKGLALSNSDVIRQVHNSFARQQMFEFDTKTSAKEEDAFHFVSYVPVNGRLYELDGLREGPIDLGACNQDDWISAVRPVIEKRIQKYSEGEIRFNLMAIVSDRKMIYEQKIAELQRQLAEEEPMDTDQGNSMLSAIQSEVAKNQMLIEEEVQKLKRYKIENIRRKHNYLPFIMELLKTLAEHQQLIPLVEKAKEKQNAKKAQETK
#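 Material: Human UCH37 enzyme supplied as purified proteasome complex | Schedule: 30 min preincubation with enzyme, 25 min cleavage at room temperature | Detection: AMC fluorescence 355/460 nm | Measure: % inhibition of Ub-AMC cleavage fluorescence | Controls: Wells without proteasome as full block, compound-free enzyme plus substrate as uninhibited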
# The depositor's hits bear a star; i = inactive; ? = inconclusive; · = no result given; & = joins results of further samples. This is a subset; rates above refer to the full screens.
MLL AF4-AF9 inh	Vif A3G	HNF4A DNA FP	FGF22 binding	RanGTP-Impb inh	Ecoli growth	UCH37 DUB inh	Compound
-1.4	?	2.5	i	2.4	0.63	2.0	Cn1c(SCc2ccc(F)cc2)nnc1-c1cnccn1
·	7%	-0.3	·	-4.4	0.72	4.9	COc1ccc(CC(=O)NCc2cn3ccsc3n2)cc1
-13	-1%	2.0	i	-4.3	0.77	7.1	Cc1cccc(NC(=O)c2cnc3sccn3c2=O)c1
-1.4	-4%	-1.7	i	-2.4	0.72	0.8	COc1cc(NC(=S)N2CCCCC2C)cc(OC)c1OC (stereo not drawn)
-2.6	-9%	5.1	i	·	0.72	0.2	CCCn1c(SCC(=O)N2CCc3ccccc32)n[nH]c1=O
-0.9	·	0.0	i	·	·	·	CCCCNC(=O)C[C@@H]1C[C@@]2(C(=O)OCC)CCCC=C2N(Cc2ccc(Cl)cc2Cl)C1=O
-4.2	·	3.9	i	-3.9	·	·	CC(=O)Nc1ccc(N(C(=O)Cc2cccs2)C(C(=O)NC2CCCC2)c2ccncc2)cc1 (stereo not drawn)
0.9	1%	4.2	i	?	0.68	-0.1	CCCC(=O)Nc1ccccc1NC(=O)c1ccc(OCC)c(OCC)c1
-9.1	·	1.7	i	4.7	·	0.1	CCOC(=O)CN1C(=O)N[C@@H](c2ccccc2)[C@@H](C(=O)OC)[C@H]1C
-2.9	-4%	6.0	i	6.7	0.63	0.0	O=C(CCc1nc2sc3c(c2c(=O)[nH]1)CCCC3)NCCc1ccccc1
5.8	-14%	-0.2	i	·	0.64	-0.2	CCCN(CC(=O)Nc1ccccc1C)C(=O)Cc1cccs1
·	11%	-0.4	·	?	0.76	-0.5	O=C(CCCCCN1C(=O)CCC1=O)Nc1ccc2c(c1)OCO2
4.9	·	-2.7	i	-0.2	0.71	11	O=C(CCN1C(=O)/C(=C/c2ccccc2Cl)SC1=S)NNC(=O)c1ccccc1O
-1.8	-2%	1.0	i	1.5	·	2.1	O=C(NC1CCCC1)c1cccc(Cn2cc([N+](=O)[O-])cn2)c1
·	14%&1%	-0.3	·	0.9	0.76	3.2	CCOC(=O)c1c(C)n(C)c2ccc(OCC(O)CNC(CC)CO)cc12 (stereo not drawn)
-1.7	-11%	1.6	i	4.3	0.71	0.9	O=S(=O)(c1ccccc1)N1CCN(C(c2ccccc2)c2ccc(OC(F)(F)F)cc2)CC1 (stereo not drawn)
0.3	·	0.3	i	-0.8	0.66	0.1	COc1ccc2nc(Nc3nc(CSc4nc5ccccc5[nH]4)cc(=O)[nH]3)nc(C)c2c1
-6.0	-2%	-2.8	i	-4.3	0.72	2.2	Cc1cccc(C(=O)NCC(=O)OCC(=O)N2CC3(C)CC2CC(C)(C)C3)c1 (stereo not drawn)
·	24%	1.7	·	0.0	0.68	5.6	Cc1ccc(CC(=O)Nc2cccc(C#N)c2)cc1
-4.3	3%	-0.7	i	-2.1	0.69	6.1	CN(C(=O)CSc1cc(C(=O)c2nccn2C)c2ccccc2n1)c1ccccc1
0.7	-6%	0.7	i	3.8	0.65	0.2	C=CCn1c(SCc2cc(=O)n3ccsc3n2)nc2ccccc2c1=O
0.0	1%	1.3	i	-0.5	0.7	0.3	CCOc1ccc(CCNC(=O)C2=C(C)C(=O)OC23CCCCC3)cc1OCC
-13	-7%	6.2	i	-1.9	0.63	3.7	CCc1noc(C)c1C(=O)N1CCN(S(=O)(=O)c2ccc(C(C)C)cc2)CC1
2.3	3%	-5.3	i	6.1	0.69	5.4	CCOC(=O)c1ccc(CSC(=N)N)o1
1.6	·	-2.0	i	-1.8	·	1.1	CC(C)C[C@H](NC(=O)c1nc[nH]c1C(=O)NC(c1ccccc1)c1ccccc1)C(=O)OC(C)(C)C
1.6	6%	-0.3	i	-2.7	0.67	2.9	CCOc1ccc(OCCC(=O)N(CCCOC)c2c(N)n(Cc3ccccc3)c(=O)[nH]c2=O)cc1
-11	·	6.3	i	3.1	0.7	2.1	CSCCC(NS(=O)(=O)c1ccccc1F)C(=O)N1CC=C(c2ccccc2)CC1 (stereo not drawn)
-2.2	?	·	i	6.1	·	·	O=C(N=Nc1ccc(NOC(=O)c2ccccc2Br)cc1)c1ccccc1O
-0.8	·	-3.0	i	7.9	0.61	3.3	Cc1cccc(NC(=O)CS(=O)CC(=O)Nc2cnc3ccccc3c2)c1C (stereo not drawn)
2.9	·	-0.8	i	-6.1	0.68	-75	CCOc1cc(NC(=O)C2CC2)c(OCC)cc1NC(=O)c1ccccc1OCC
-0.5	2%	2.7	i	-2.7	0.68	2.2	COc1cccc(C(=O)NNC2OC(CO)C(O)C2O)c1 (stereo not drawn)
-6.8	1%	-5.7	i	-0.3	0.66	0.3	COc1ccc(C(=O)OCC(=O)NC(C)CCc2ccccc2)c(OC)c1 (stereo not drawn)
-3.6	·	1.8	i	·	·	·	COCCNC(=O)c1[nH]c(C(F)(F)F)nc1-c1ccccc1
0.1	-2%	-0.1	i	-3.7	0.7	3.3	CCn1nc(C(=O)OCC(=O)c2ccc(F)cc2)c2ccccc2c1=O
2.5	·	-2.0	i	·	·	·	N#Cc1cccnc1N1CCN(C(=O)c2[nH]c(C(F)(F)F)nc2-c2ccccc2)CC1
5.2	8%	0.2	i	2.4	0.68	3.8	CC(C)c1ccc(S(=O)(=O)N2CCN(C(=O)c3ccc(N4CCCC4)c([N+](=O)[O-])c3)CC2)cc1
·	19%	2.0	·	-1.0	0.72	-10.0	O=C(c1cccs1)N(Cc1ccco1)Cc1cc2ccccc2[nH]c1=O
-1.2	5%	5.8	i	·	0.72	1.9	COc1ccccc1NCCC(=O)OCC(=O)Nc1cc([N+](=O)[O-])ccc1F
-0.8	-4%	-2.0	i	48*	0.67	-134	O=c1[nH]c2ccccc2nc1-c1c[nH]c2ccccc12
-5.5	-3%	2.7	i	2.7	0.7	-0.9	CCCCNC(=O)COC(=O)c1cc(F)c(F)cc1Cl
-4.2	-9%	5.4	i	11	·	·	Cc1nc(C)c(C(=O)N/N=C/c2cc(Br)ccc2O)s1
-0.2	-3%	3.1	i	?	0.74	-131	COC(=O)c1c(NC(=O)c2ccoc2C)sc(C)c1C
·	10%	0.1	·	2.0	0.66	2.9	CCn1nc(C(=O)OC(C(=O)c2c[nH]c3ccccc23)c2ccccc2)c2ccccc2c1=O (stereo not drawn)
·	1%	1.2	·	1.6	0.65	1.5	COc1ccc(S(=O)(=O)N(CC(=O)O)Cc2ccccc2)cc1OC
-4.1	6%	-4.2	i	0.2	0.63	1.7	COCCn1cnc2c1c(=O)n(Cc1ccccc1C#N)c(=O)n2Cc1ccccc1
2.2	-14%	3.5	·	·	·	·	CN(C)S(=O)(=O)c1cccc(C(=O)N2CCN(S(=O)(=O)c3ccc4c(c3)OCCO4)CC2)c1
-1.9	6%	4.2	i	0.0	0.67	0.6	CCCCSc1nnc(CSc2nc3nc(C)cc(C)n3n2)o1
-2.6	·	34*	i	1.3	0.7	-3.6	CCCC(C(=O)Nc1ccc(S(=O)(=O)Nc2ncccn2)cc1)c1ccccc1 (stereo not drawn)
-1.0	4%	2.5	i	3.6	0.68	-2.0	Cc1sc2ncnc(SCC(=O)NC(C)(C)C)c2c1C
0.2	·	-1.4	i	-0.1	·	·	O=C(N/N=C/c1ccccn1)c1ccc([N+](=O)[O-])cc1Cl
-1.7	-3%	-1.0	i	-3.1	0.67	5.3	CCCc1cc(C(=O)Nc2ccc(C(=O)c3ccccc3)cc2)n(C)n1
-5.4	14%	0.1	i	-0.8	·	·	O=C(O)c1ccccc1SCc1cn2cc(Cl)ccc2n1
4.2	-1%	3.3	i	·	0.7	-16	CC[C@]12c3[nH]c4cc(-c5ccco5)ccc4c3CCN1C(=O)[C@@H](CC(=O)NCc1ccc(OC)c(OC)c1)C[C@@H]2C(=O)N1CCN(C(=O)c2ccco2)CC1
-2.9	·	-1.5	i	·	·	·	COc1cc(C(O)c2nc(-c3cccc(C(C)C)c3)cs2)ccc1F (stereo not drawn)
·	-9%	0.7	·	-2.2	0.71	4.6	O=C(C1CCN(S(=O)(=O)Cc2ccccc2)CC1)N1CCN(c2ncccn2)CC1
0.2	·	2.6	i	-1.0	·	1.6	CCN1C(=O)[C@H]2[C@@H](c3ccc(-c4cccc(Cl)c4)cc3)N[C@@](Cc3ccccc3)(C(=O)OC)[C@H]2C1=O
-0.5	-2%	3.7	i	·	0.64	0.1	Cc1ccc(C(=O)OCC(=O)c2c[nH]c3ccccc23)cc1S(=O)(=O)N1CCOCC1
·	1%	-2.3	·	0.4	0.72	-0.3	O=C(Nc1ccccc1C(=O)N1CCCC1)c1cccc(S(=O)(=O)N2CCCCCC2)c1
-2.2	5%	0.5	·	2.9	0.66	4.2	COc1cc(C(=O)Nc2ccc3c(c2)nc(C)n3C)cc(OC)c1OC
-1.3	-2%	0.9	·	1.7	0.7	-24	O=C1CC2(CCN(C(=O)c3cccc(F)c3)CC2)Oc2ccccc21

# Some of these compounds in order of the MLL AF4-AF9 inh value, smallest number first:
MLL AF4-AF9 inh	Vif A3G	HNF4A DNA FP	FGF22 binding	RanGTP-Impb inh	Ecoli growth	UCH37 DUB inh	Compound
-5.4	14%	0.1	i	-0.8	·	·	O=C(O)c1ccccc1SCc1cn2cc(Cl)ccc2n1
-4.1	6%	-4.2	i	0.2	0.63	1.7	COCCn1cnc2c1c(=O)n(Cc1ccccc1C#N)c(=O)n2Cc1ccccc1
-0.5	-2%	3.7	i	·	0.64	0.1	Cc1ccc(C(=O)OCC(=O)c2c[nH]c3ccccc23)cc1S(=O)(=O)N1CCOCC1
5.2	8%	0.2	i	2.4	0.68	3.8	CC(C)c1ccc(S(=O)(=O)N2CCN(C(=O)c3ccc(N4CCCC4)c([N+](=O)[O-])c3)CC2)cc1

# The list goes on.
MLL AF4-AF9 inh	Vif A3G	HNF4A DNA FP	FGF22 binding	RanGTP-Impb inh	Ecoli growth	UCH37 DUB inh	Compound
-0.2	-11%	1.5	i	·	0.68	3.3	N#CCCN1CCN(S(=O)(=O)c2ccc3c(c2)CCC3)CC1
·	14%	-1.4	·	-0.9	0.65	1.0	N#Cc1ccc(CSc2nnc(-c3cccnc3)n2-c2ccccc2)cc1
3.9	·	1.4	i	-2.8	0.71	-11	O=c1[nH]c(/C=C/c2cccc(Br)c2)nc2ccccc12
·	-1%	-4.9	·	1.0	0.73	-0.3	O=C(Nc1ccc(-c2nnc(-c3ccco3)o2)cc1)C(c1ccccc1)c1ccccc1
·	-4%	1.2	·	-1.8	·	·	Cc1ccccc1OCC(=O)O/N=C(\N)Cc1ccc(Cl)cc1
-0.9	·	-1.9	i	-2.4	0.66	0.9	CC(C)(C)C(O)C(Cc1ccccc1Cl)n1cncn1 (stereo not drawn)
-3.4	·	1.9	i	-0.9	0.68	6.8	O=C(Nc1cccc(C(=O)NC2CCCCC2)c1)c1ccccc1
-2.8	-6%	5.3	i	·	·	·	COc1ccc([C@@H]2C[C@H]3[C@@H](CN2S(=O)(=O)c2ccccc2)C(=O)C[C@@H](c2ccc(C)cc2)N3S(=O)(=O)c2ccc(C)cc2)cc1
·	·	-5.9	·	8.3	0.69	4.5	COc1ccc(NC(=O)C(c2ccc(Cl)cc2)C(C)C)cn1 (stereo not drawn)
-9.2	·	2.7	i	2.4	0.68	3.0	Cn1cc(CNC(=O)C2CCC(=O)N(Cc3ccc(Cl)cc3)C2)cn1 (stereo not drawn)
0.1	16%	0.9	i	5.9	0.66	-45	Cc1ccc2c(c1)C(=O)CC1(CCCC1)O2
-1.3	-3%	0.5	i	5.2	0.68	3.6	CCn1cc(-c2cc(C(=O)O)on2)c(C)n1
-0.5	0%	5.1	i	3.1	0.67	0.0	CCN(CC)C(=O)c1ccc2c(c1)nnn2C
